Source: PubChem BioAssay (National Center for Advancing Translational Sciences (NCATS))
ClpP mod = qHTS Assay for Activators of ClpP; purified B. subtilis ClpP, FRET peptide cleavage, 20 min; Potency, µM (titrated, usually from 57.5 µM), without a hit: top-dose activity change, negative = active; 340,000 tested, 1.9% active; active = well fitted falling curve with a large enough effect; inconclusive = small, poorly fitted or top-dose-only effect; inactive = no such curve, though single readings can be large or run the other way; also: the source files actives as falling curves though it sought activators and does not explain the sign; nearly all actives have a fitted effect of over 65% in size; many hits overshoot -100%
Target sequence (P80244 whole entry, looked up): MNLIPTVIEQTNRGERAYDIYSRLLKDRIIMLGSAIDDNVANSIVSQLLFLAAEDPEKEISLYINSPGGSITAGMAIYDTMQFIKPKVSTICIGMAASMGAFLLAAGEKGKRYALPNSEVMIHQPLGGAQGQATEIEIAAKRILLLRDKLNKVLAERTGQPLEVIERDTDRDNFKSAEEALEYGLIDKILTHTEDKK
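FRET quenching reversal measured ClpP activation: 10 microg/mL B. subtilis ClpP at pH 8 with the FRET-FV decapeptide, read at 430 nm after 320 nm excitation. The 20-min minus 0-min signal was scaled between DMSO/no-enzyme wells and ADEP (5.8 microM final).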
* marks the source's active call; other numbers are inactive results; ? = inconclusive; & = joins results of further samples. Potency is read from the fitted curve at half-maximal effect. This is a subset. The share of hits here may be higher or lower than overall.

No.	compound	ClpP mod
1	Cc1ccc(S(=O)(=O)N2CCC(=O)N([C@H](COCc3cccc(Cl)c3)C(C)C)CC2)cc1	-5.9%
2	Cc1cc(SCC(=O)c2ccc(Br)cc2)cc(C)[o+]1	-1.1%
3	O=C(Nc1ccc2c(c1)OCCO2)C1c2ccccc2OCC(=O)N1Cc1ccco1 (stereo not drawn)	0.5%
4	COc1ccc(C2=Nc3ccccc3N(C(=O)c3cccnc3)C2C(=O)NC2CCCC2)cc1 (stereo not drawn)	-3.2%
5	CC1(CO)CCCC1NCCNC1CCCC1(C)CO (stereo not drawn)	-0.2%
6	CC(C)N1CCC1(C)C(=O)Nc1ccc2scnc2c1 (stereo not drawn)	1.2%
7	O=C(Nc1ccc(Oc2ccccc2)cc1)c1csc([C@@H]2C[C@H](O)[C@@H](CO)O2)n1	-2.6%
8	O=C(c1ccc(Cl)c(Cl)c1)N1CCC(=O)N([C@H](COCc2ccc(Cl)cc2)Cc2ccccc2)CC1	-2.9%
9	Cc1ccc(CN2C(=O)CCC2(C)c2nnnn2Cc2ccccc2)cc1 (stereo not drawn)	0.4%
10	O=C(NC1CCCC1)C1c2ccccc2OCC(=O)N1CCc1c[nH]c2ccccc12 (stereo not drawn)	-1.9%
11	O=C(C[N+]12CN3CN(CN(C3)C1)C2)c1ccc(O)c(O)c1	-2.2%
12	COc1cccc(-c2cnc(C(O)c3ccc(Cl)c(Cl)c3)[nH]2)c1 (stereo not drawn)	1.1%
13	COc1ccc(F)cc1-c1cc(NC=O)c2ncc(-c3cccc(C(F)(F)F)c3)n2c1	4.1%
14	O=C(Nc1ccc(Br)cc1Br)Nc1cccc2[nH]c([C@@H]3O[C@H](CO)[C@@H](O)[C@H](O)[C@H]3O)nc12	1.3%
15	CCCOc1ccc(F)cc1-c1cc(C(=O)Nc2ccc(F)c(Cl)c2)[nH]n1	-24%
16	CCOC(=O)C(=C1Nc2ccccc2N1)n1c(-c2cccnc2)nc2ccccc21	-14%
17	OC(c1ccccc1)c1nc(-c2cccs2)cs1 (stereo not drawn)	0.8%
18	Cn1nc(C(C)(C)C)cc1N1C(=O)CCC1(C)C(=O)NC1CCCC1 (stereo not drawn)	0.5%
19	COc1cc(-c2cc(NC(C)=O)c3ncc(-c4ccccc4)n3c2)cc(OC)c1OC	-18%
20	COc1ccc(Cl)cc1Cn1c(C)c(C(=O)NCc2cccc(C(F)(F)F)c2)sc1=O	0.0%
21	COC(=O)c1c(-c2ccc(N(C)C)cc2)oc2c1C(OC)CCC2 (stereo not drawn)	4.6%
22	CC1(C(=O)Nc2cccc3cccnc23)CCN1Cc1ccccc1OC(F)F (stereo not drawn)	?
23	Clc1ccc(/C=C/c2ccnc3ccccc23)cc1	4.0%
24	CC(C)N(c1ccccc1)c1ccc(NC(=O)[C@@H]2O[C@H](CO)[C@@H](O)[C@H]2O)cc1	-2.3%
25	CCOC(=O)[C@]12CCCC=C1N(Cc1ccco1)C(=O)[C@H](CC(=O)NCC1CCCCC1)C2	1.0%
26	O=C(NNc1c(Cl)cccc1Cl)c1sc2ccccc2c1Cl	0.0%
27	CCOC(=O)N1CCN(C(=O)C[C@@H]2C[C@@]3(C(=O)OCC)CCCC=C3N(CCC3=CCCCC3)C2=O)CC1	-2.9%
28	C#CCNC(=O)C[C@@H]1C[C@@]2(C(=O)OCC)CCCC=C2N(Cc2ccccc2)C1=O	-0.9%
29	CC1(C(=O)NCc2ccc3c(c2)OCO3)CCN1C(=O)Cc1cccs1 (stereo not drawn)	-0.5%
30	CCC(c1nc2ccccc2[nH]1)n1c(-c2cnccn2)nc2ccccc21 (stereo not drawn)	0.3%

A different layout for part of the listing above:
#21 COC(=O)c1c(-c2ccc(N(C)C)cc2)oc2c1C(OC)CCC2 (stereo not drawn)
  ClpP mod: 4.6%

#22 CC1(C(=O)Nc2cccc3cccnc23)CCN1Cc1ccccc1OC(F)F (stereo not drawn)
  ClpP mod: ?

#23 Clc1ccc(/C=C/c2ccnc3ccccc23)cc1
  ClpP mod: 4.0%

#24 CC(C)N(c1ccccc1)c1ccc(NC(=O)[C@@H]2O[C@H](CO)[C@@H](O)[C@H]2O)cc1
  ClpP mod: -2.3%

Next section.
No.	compound	ClpP mod
31	c1ccc(COc2ccc(-c3cc4nc(NCCCn5ccnc5)ccn4n3)cc2)cc1	4.4%
32	CCCCNC(=O)c1ccc2nc(CC)c(N(C)Cc3ccc(OC)cc3)n2c1	-6.5%
33	CO[C@@H]1CN(C)C(=O)c2cc(NC(=O)Nc3ccc4c(c3)OCO4)ccc2OC[C@@H](C)N(C)C[C@H]1C	-2.4%
34	CCCOc1ccc(F)cc1-c1cc(C(=O)Nc2ccc(C(C)C)cc2)[nH]n1	-7.2%
35	CCCCn1nnnc1C(c1ccccc1)N1CCN(c2ccccn2)CC1 (stereo not drawn)	-2.9%
36	COc1ccc(S(=O)(=O)NC(=O)C2(C)CCN2C(=O)CCC2CCCC2)cc1OC (stereo not drawn)	-5.3%
37	O=C(Nc1cccc(Cl)c1)c1csc([C@@H]2C[C@H](O)[C@@H](CO)O2)n1	0.1%
38	CCCNC(=O)C1(C)CCCN(C(=O)c2ccc(C)c(F)c2)C1 (stereo not drawn)	0.5%
39	CSc1ccc(Cn2c(C)c(C(=O)NCCC#N)sc2=O)cc1	-4.7%
40	C#CCNC(=O)C[C@@H]1C[C@@]2(C(=O)OC)CCCCC=C2N(Cc2ccco2)C1=O	1.2%
41	Cc1ccc(Cc2c(-c3ccc(Cl)cc3)nc3c4ccccc4ccn23)cc1	50%
42	COc1ccc(C=C(C(C)=O)C(=O)c2ccccc2)cc1	-18%
43	CCCCN1C(=O)C(CC(=O)NCCc2ccccn2)CC(C(=O)N2CCCCCC2)=C1C (stereo not drawn)	1.2%
44	CC(C(=O)c1ccccc1)[n+]1ccc(Cl)c2ccc(Cl)cc21 (stereo not drawn)	-2.9%
45	CC1Cc2[nH][nH]c(=O)c2C(C2CC2)O1 (stereo not drawn)	0.8%
46	O=C(Nc1ccccc1)c1cc(C2CCCN(C(=O)CCc3ccccc3)C2)on1 (stereo not drawn)	1.2%
47	CC1(Oc2cccc(Cl)c2)CCN(Cc2ccc(OC(F)(F)F)cc2)C1 (stereo not drawn)	0.8%
48	CCc1nc2ccc(C(=O)Nc3cc(-c4ccccc4)ccc3OC)cn2c1N(C)C(=O)c1cccc(OC)c1	?
49	CC1OC(C2CCCCC2)Cc2[nH]c(=S)[nH]c(=O)c21 (stereo not drawn)	-1.7%
50	O=C(NCCc1nc2ccccc2n1CCCOc1ccccc1Cl)C1CCCCC1	2.4%
51	O=C(NCc1ccccn1)c1[nH]c(C(F)(F)F)nc1-c1ccccc1	-0.5%
52	Cc1cc(C(O)c2ncc(-c3cccc4ccccc34)[nH]2)ccc1F (stereo not drawn)	4.8%
53	Cc1ccc(NC(=O)C2(C)CCN2C(=O)Cc2ccc(C(C)C)cc2)cc1 (stereo not drawn)	0.9%
54	Cn1c(=O)c2cc(NC(=O)CCc3cccnc3)ccc2n1Cc1cccc(C(F)(F)F)c1	4.5%
55	CC(=O)c1ccc(Nc2nc(C(N)Cc3ccc(N)cc3)cs2)cc1 (stereo not drawn)	-5.9%
56	O=C(Nc1cccc2ccccc12)c1ccco1	-2.9%
57	Cc1cc(F)ccc1-c1cc(C(=O)NCc2cc(C(F)(F)F)cc(C(F)(F)F)c2)[nH]n1	0.5%
58	O=C(NCCc1nc2ccccc2n1CCCOc1ccc2ccccc2c1)C1CCCCC1	-28%
59	COc1ccc(CN2C(=O)C(CC(=O)NCCCN(C)C)CC(C(=O)N3CCCCCC3)=C2C)cc1 (stereo not drawn)	-1.0%
60	O=C(CNC(=O)c1ccccc1)OCC(=O)c1ccc2ccccc2c1	?

The closing 4 entries of the section before are carried over, then new ones follow:
No.	compound	ClpP mod
57	Cc1cc(F)ccc1-c1cc(C(=O)NCc2cc(C(F)(F)F)cc(C(F)(F)F)c2)[nH]n1	0.5%
58	O=C(NCCc1nc2ccccc2n1CCCOc1ccc2ccccc2c1)C1CCCCC1	-28%
59	COc1ccc(CN2C(=O)C(CC(=O)NCCCN(C)C)CC(C(=O)N3CCCCCC3)=C2C)cc1 (stereo not drawn)	-1.0%
60	O=C(CNC(=O)c1ccccc1)OCC(=O)c1ccc2ccccc2c1	?
61	CC1(C(=O)NCCC#N)CCN1C(=O)c1ccccc1CCc1ccccc1 (stereo not drawn)	-1.4%
62	Cc1cccc(C)c1-n1nnnc1C(c1ccnc2ccccc12)N(C)Cc1ccc(Cl)c(Cl)c1 (stereo not drawn)	-0.2%
63	CCNC(=O)C1(C)CCN(C(=O)c2c(F)ccc(C)c2F)C1 (stereo not drawn)	0.2%
64	O=C(Nc1ccc(Br)cc1F)c1cnn2c1NC(=C1CC1)C=C2C(F)F	2.7%
65	CC1=C(C(=O)N(C(C)C)C(C)C)CC(CC(=O)NCc2cccc3ccccc23)C(=O)N1Cc1ccc(F)cc1 (stereo not drawn)	1.7%
66	Cc1cnc(CNC(=O)C2(C)CCCN2CC(C)C)cn1 (stereo not drawn)	-0.9%
67	CS(=O)(=O)Nc1cccc(-c2ccc3nncn3c2)c1	-2.6%
68	CC(C)C(=O)N1CCC1(C)C(=O)Nc1cccc(Oc2ccccc2)c1 (stereo not drawn)	1.4%
69	CSc1ccc(CN2CCC2(C)C(=O)NCc2cccc(C(F)(F)F)c2)cc1 (stereo not drawn)	0.1%
70	OC(CBr)CN1CCCCC1 (stereo not drawn)	0.6%
71	CN(C)c1ccc(/C=C/c2ccc3cc(N)ccc3n2)cc1	-7.3%
72	Cc1cccc(C)c1NC(=O)C1(C)CN(S(C)(=O)=O)CC(=O)N1CC(F)(F)F (stereo not drawn)	-0.6%
73	CC1(C(=O)NS(=O)(=O)c2ccccc2Cl)CCN1C(=O)C1(c2ccccc2)CC1 (stereo not drawn)	0.1%
74	COc1ccc(OC)c(CN2C(=O)c3ccccc3C2c2nnnn2Cc2ccccc2)c1 (stereo not drawn)	0.4%
75	CC(CC(=O)Nc1ccc2c(c1)c(=O)n(C)n2-c1cccs1)c1ccccc1 (stereo not drawn)	-0.1%
76	COC(=O)[C@]12CCCCC=C1N(Cc1ccc(Cl)cc1Cl)C(=O)[C@H](CC(=O)NCCCN1CCCC1=O)C2	-3.6%
77	COc1cc2c(cc1OC)C(c1ccccc1)N(Cc1ccc(S(=O)(=O)NC(=O)c3ccco3)cc1)CC2 (stereo not drawn)	-9.5%
78	COC(=O)[C@@H](Cc1ccccc1)NC(=O)[C@H]1O[C@@H](n2cnc3c(N)ncnc32)[C@H](O)[C@@H]1O	0.1%
79	Cc1cccc(C)c1C(O)c1ncc(-c2ccc(Cl)cc2)[nH]1 (stereo not drawn)	-1.1%
80	CN(CC(=O)O)c1ccc(/C=C2\C=Cc3ccccc32)cc1	0.8%&-1.8%
81	OC1C(Br)=Cc2ccccc21 (stereo not drawn)	-1.6%
82	COCCN1C[C@@H](CO)O[C@@H](n2cnc3c(N4CCN(c5ccccc5)CC4)ncnc32)C1	0.7%
83	COc1ccc(-c2sc3ccccc3c2-c2cc(OC)ccc2C=O)cc1	-16%
84	Cc1cccc(OCC(=O)Nc2cc(C)c(O)c(-c3nc4ccccc4o3)c2)c1	0.7%
85	COc1cccc(-c2cnc(C(O)c3ccc(C)c(F)c3)[nH]2)c1 (stereo not drawn)	1.4%
86	O=C(NCCc1ccccc1)C1Cc2c(-c3ccccc3Oc3ccccc3)ccnc2O1 (stereo not drawn)	-6.5%
87	Cc1ccc(C(=O)NCCN2CCC(n3c(=O)[nH]c4ccccc43)CC2)cc1C	-0.1%
88	NS(=O)(=O)c1ccc(NC(=O)c2nc(S(=O)(=O)Cc3ccccc3F)ncc2Cl)cc1	3.9%
89	COc1ccc(NC(=O)C2(C)CCN2Cc2csc3ccccc23)cc1OC (stereo not drawn)	0.6%
90	Cc1cccc(C)c1NC(=O)C1(C)CCC(=O)N1c1cc(C(C)(C)C)nn1C (stereo not drawn)	-0.1%
91	Cc1cc[n+](CC#N)cc1	-0.1%
92	COc1cc(N(C)C)ccc1/C=C/c1ccnc2ccccc12	-2.2%
93	CN(C)c1ccc(/C=C/c2ccc3cc(F)ccc3n2)cc1	-3.5%
94	Cc1ccc(C(O)c2ncc(-c3ccccc3Cl)[nH]2)cc1 (stereo not drawn)	0.4%
95	COc1cccc(CNC(=O)[C@@H]2CCCN2C(=O)[C@@H]2CCCN2)c1	0.4%
96	CC1(C(=O)NS(=O)(=O)c2ccccc2)CCN1C(=O)c1ccccc1CCc1ccccc1 (stereo not drawn)	-10%
97	COc1ccc(CN2CCC2(C)C(=O)NCc2ccc3c(c2)OCO3)c2ccccc12 (stereo not drawn)	-1.8%
98	Cc1cnc(CNC(=O)c2csc([C@@H]3O[C@H](CO)[C@H](O)[C@H](O)[C@H]3O)n2)cn1	0.3%
99	COc1ccccc1C=C1CCc2ccccc2C1=O	1.6%
100	O=C(NC1CCCCC1)c1nc(C2CCNCC2)oc1-c1ccccc1	-1.7%
101	NC(CCc1ccccc1)c1csc(Nc2ccc(C(=O)NCCO)cc2)n1 (stereo not drawn)	-26%
102	CC1(C(=O)NCc2ccccc2)CSCC(=O)N1C1CCN(Cc2ccccc2)CC1 (stereo not drawn)	0.8%
103	CNc1cnc(-c2ccsc2)cn1	5.6%
104	COc1ccc(OCCN2CCC(C(=O)NC(c3ccccc3)c3ccc4ccccc4n3)CC2)cc1 (stereo not drawn)	-6.2%
105	O=C1Nc2ccccc2-n2nnnc2C1N1CCN(c2ccc(C(F)(F)F)cn2)CC1 (stereo not drawn)	-3.2%
106	CC(=O)NC(c1cccc(F)c1)c1nc(-c2cccs2)cs1 (stereo not drawn)	-3.4%
